From PubChem BioAssay
HSV replic up – enhancers of HSV replication in host cells, fold increase, host cell viability; HSV replication augmentation in cells; maximum fold increase; 220,000 tested, 0.005% active;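 active = peak rise of 1.5-fold or more in the series; inconclusive = self-fluorescent or not available for retest; tested in PC3 cells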;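 note: first round at 10 µM; read as green reporter fluorescence; hits show the peak of a series up to 25 µM; 1 = signal of infected wells without compound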
PKD1 kinase inh – inhibitors of human PKD1 kinase, biochemical, fluorescence polarization; PKD1 kinase fluorescence polarization assay; inhibition, %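 (about 10 µM by stock and volumes)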; 200,000 tested, 0.056% active;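 active = inhibition of 50% or more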;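 note: controls were vehicle for no effect and a reference inhibitor for full effect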
Target sequence (Q15139 whole entry, looked up): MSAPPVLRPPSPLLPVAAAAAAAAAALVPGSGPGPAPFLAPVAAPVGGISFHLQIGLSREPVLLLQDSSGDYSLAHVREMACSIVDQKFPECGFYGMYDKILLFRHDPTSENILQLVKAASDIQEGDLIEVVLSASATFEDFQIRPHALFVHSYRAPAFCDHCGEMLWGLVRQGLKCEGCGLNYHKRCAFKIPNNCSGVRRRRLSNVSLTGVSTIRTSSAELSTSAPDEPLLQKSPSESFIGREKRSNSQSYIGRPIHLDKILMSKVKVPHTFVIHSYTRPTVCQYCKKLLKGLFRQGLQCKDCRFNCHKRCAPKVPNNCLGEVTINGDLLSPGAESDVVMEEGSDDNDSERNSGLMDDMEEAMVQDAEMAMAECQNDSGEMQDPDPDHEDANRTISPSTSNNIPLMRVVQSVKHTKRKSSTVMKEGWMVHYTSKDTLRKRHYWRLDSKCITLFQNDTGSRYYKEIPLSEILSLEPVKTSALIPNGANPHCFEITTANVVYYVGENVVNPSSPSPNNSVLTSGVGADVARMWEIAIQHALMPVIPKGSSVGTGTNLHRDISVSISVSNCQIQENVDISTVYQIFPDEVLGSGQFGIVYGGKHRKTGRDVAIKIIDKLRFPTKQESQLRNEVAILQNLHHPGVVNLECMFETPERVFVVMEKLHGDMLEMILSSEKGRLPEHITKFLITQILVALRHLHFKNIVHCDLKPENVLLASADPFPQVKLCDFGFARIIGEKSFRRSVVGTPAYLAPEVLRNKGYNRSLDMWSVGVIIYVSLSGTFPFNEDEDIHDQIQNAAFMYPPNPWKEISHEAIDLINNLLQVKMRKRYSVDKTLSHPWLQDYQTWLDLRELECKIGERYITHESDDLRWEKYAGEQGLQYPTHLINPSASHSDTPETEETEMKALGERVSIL
INS promoter inh – inhibitors of insulin promoter-driven GFP, primary screen, imaging, TRM-6 cells (human fetal islet line), eGFP reporter, cell count. AID 1273, 2008. reporter expression induced with tamoxifen. 130,000 tested, 0.9% active. inhibition, % at 2 µM;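 active = inhibition above the mean plus 3 SD, with well images judged a real hit on visual review, cut at about 60% in these data, passing the limit was not always enough; inconclusive = inhibition over the cutoff but images rejected on review; inactive = inhibition not above the cutoff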
RGS16-Gao HTS – modulators of RGS16 binding to Galphao, primary screen, biochemical, human proteins, multiplexed bead flow cytometry; bead-based flow cytometry RGS16-Galphao binding, fluorescence; actives lie on both sides; binding response (% of control), % at 10 µM; 220,000 tested, 0.38% active;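 active = below 25% or above 175%, edge rows of some plates excepted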;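 note: Galphao activated by GDP with aluminum fluoride before binding; 100% = wells without compound and 0% = beads without RGS; some results beyond the cut were filed as inactive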
GALR2 ag – GALR2 receptor agonists, primary screen, cell-based; Galanin receptor type 2 (Homo sapiens), O43603; GALR2-expressing cells, agonist activation read-out; activation, %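 (tested at 5 µM)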; 140,000 tested, 0.48% active; AID 803, 2007;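 active = above mean plus 3 SD of all compounds, about 5% in these data, not always enough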;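 note: 0% = vehicle buffer wells and 100% = reference agonist at full effect; tested in CHO reporter cells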
INS promoter inh cell count – also measured in INS promoter inh; calls as there; normalized cell count, %; measured here: cell count, toxicity; reference of the scale not given here;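 cells exposed to compound for 48 h; stained nuclei by imaging scaled within each plate; lower means fewer cells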
HSV replic up primary fold – second read-out of HSV replic up, no call of its own (marks repeat the call); fold increase; compound at 10 µM; measured here: primary screen fold increase 10 uM; tested in PC3 cells;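 GFP signal in the first replicate; 1 = infected wells without compound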
The depositor's hits bear a star; i = inactive; ? = inconclusive; . = no result given.

SMILES	HSV replic up	HSV replic up primary fold	PKD1 kinase inh	INS promoter inh	INS promoter inh cell count	RGS16-Gao HTS	GALR2 ag
CN(C)CCCNC(=O)/C=C/c1ccc2c(c1)OCO2	i	1.1	-4	13	154	98	-0.7
Cc1cccc(C(=O)N2CCN(c3ccc(N4CCOCC4)nn3)CC2)c1	i	1	.	.	.	22*	.
O=C(C[n+]1cc(-c2ccc(Cl)cc2)n2c1CCC2)Nc1nc(-c2ccccc2)cs1	i	0.87	.	.	.	101	.
CSc1n[nH]c(-c2sccc2OCc2ccc(C)cc2)n1	i	0.94	-2	.	.	103	-0.8
CCOc1ccc2[nH]cc(S(=O)(=O)c3ccc(C)cc3)c(=O)c2c1	i	0.94	-1	.	.	103	.
Cc1cc[n+](-c2[nH]c(=O)sc2/C=N/NC(=O)c2ccccc2[O-])cc1C	i	1.1	6	.	.	94	1.1
COc1cccc(C(C#N)N2CCOCC2)c1 (stereo not given)	i	0.98	-2	-4	67	107	-1.3
Cc1occc1-c1nnc(SCC(=O)NC(C)(C)C)n1CC(C)C	i	1	1	41	115	100	.
Cc1ccc2oc(C(Cl)(Cl)Cl)cc(=O)c2c1	i	0.63	-1	.	.	100	-3.8
COc1ccc(OC)c(S(=O)(=O)N2Cc3ccccc3CC2C(=O)Nc2nccs2)c1 (stereo not given)	i	0.89	-5	-69	57	102	-3.3
O=C(/C=C/c1ccccc1)Nc1ccc(N2CCCCC2)cc1	i	0.88	-3	.	.	116	-0.4
CCc1ccc2[nH]c(=O)c(CN(CCO)C(=O)NCc3ccccc3)cc2c1	i	1	.	.	.	74	.
Cc1ccc(N2CSC3=C(C#N)C(c4cccs4)CC(=O)N3C2)cc1 (stereo not given)	i	1	5	.	.	71	-2.3
Cc1ccc(S(=O)(=O)NNC(=O)C(=O)NNS(=O)(=O)c2ccc(C)cc2)cc1	i	1	4	.	.	102	.
Cc1nc(NC(=O)CSc2nnc(-c3ccccc3)c(-c3ccccc3)n2)c(Cl)cc1Cl	.	.	-9	.	.	97	-1.1
O=C(COC(=O)CCNS(=O)(=O)c1ccc(Cl)cc1)NCc1ccco1	.	.	-4	57	52	102	-1.8
COc1ccc(Nc2nc(N)nc(CCl)n2)cc1	i	0.66	.	.	.	93	.
O=C1CCC(=O)N1CC(O)COc1ccccc1 (stereo not given)	i	1	.	.	.	99	.
COC(=O)C(C)Oc1ccc2c(-c3cccc([N+](=O)[O-])c3)cc(=O)oc2c1 (stereo not given)	i	0.91	1	56	67	100	0.4
COC(=O)N/N=C\c1cccc(OC(=O)c2cccs2)c1	i	0.88	-1	-12	134	103	.
Cc1ccc(S(=O)(=O)NCc2ccc(C(=O)N3CCCC3)cc2)cc1	i	1.1	-5	50	112	102	-0.8
CCN1CCCC1CNC(=O)CCc1nc(-c2ccc(C)cc2)no1 (stereo not given)	i	0.82	-6	-58	49	103	-1.7
COc1ccc(Cl)cc1NC(=O)COC(=O)CCCN1C(=O)c2ccccc2C1=O	i	1.2	1	.	.	78	-0.1
O=C(COc1ccc2ccccc2c1)Nc1ccncc1	i	1	0	.	.	108	.
COc1ccc(NC(=O)CSc2nc(O)cc(=O)n2-c2ccccc2OC)cc1	i	1.1	1	9	72	97	-3.0
(listing goes on)
SMILES	HSV replic up	HSV replic up primary fold	PKD1 kinase inh	INS promoter inh	INS promoter inh cell count	RGS16-Gao HTS	GALR2 ag
CC(C)NCC(O)c1ccc(NS(C)(=O)=O)cc1 (stereo not given)	i	0.77	.	.	.	100	.
Nc1n[nH]c(C2CC2)c1N=Nc1ccc(Cl)cc1	i	0.92	.	.	.	103	.
O=C(O)COc1ccc(NC(=O)c2ccco2)cc1	i	0.77	-2	71	141	104	-0.1
N#CC(=C1CCCC1)c1nc(-c2cc3ccccc3oc2=O)cs1	i	0.95	-7	-35	132	102	-0.4
CCCCCCOc1ccc(OC(=O)c2cccnc2)cc1	.	.	-5	3	49	100	-0.2
O=C(CCc1ccccc1)Nc1ccc(NC(=O)c2ccco2)cc1	i	0.85	-3	.	.	90	-1.8
Cc1ccc(-c2csc(NC(=O)C[n+]3cc(-c4ccccc4)n4c3CCC4)n2)cc1	i	0.75	.	.	.	100	.
COc1ccc(-c2noc(CSc3ccc(C)cc3)n2)cc1	i	1	-9	i	78	97	-2.2
COc1ccc(-c2ccc(C#N)c(SCC(=O)NCc3ccco3)n2)cc1OC	i	0.99	.	.	.	100	.
Cc1[nH]c2ccccc2c1C(=O)C(=O)NCCC1=CCCCC1	i	0.92	-7	.	.	101	-0.1
Cc1ccccc1N1C(=O)CC(N(O)c2ccccc2)C1=O (stereo not given)	i	1.1	-8	-67	98	102	-0.8
COc1ccc(NC(=S)Nc2ccc(OCc3ccccc3)cc2)cc1OC	i	0.89	-7	.	.	.	-1.3
CCCC(=O)Nc1ccc(C(=O)NNC(=O)c2ccccc2Br)cc1	i	0.74	9	.	.	97	-1.4
COc1ccc(/C=C(/NC(=O)c2cccc([N+](=O)[O-])c2)C(=O)O)cc1OC	i	1	5	5	109	102	.
O=C(CN1CCN(CCC(=O)Nc2ccccc2F)CC1)Nc1ccc(F)cc1	i	1	5	.	.	107	0.0
Cc1ccc(/C=C/C(=O)O)cc1S(=O)(=O)N1CCCc2ccccc21	i	0.96	.	.	.	104	.
COc1cc(OC)cc(C(=O)N2CCN(C(=O)c3ccc(OC)c(OC)c3)CC2)c1	.	.	-2	-47	129	104	0.6
CCN(CC(=O)Nc1ccc([N+](=O)[O-])cc1OC)c1ccccc1	i	1	12	.	.	101	-3.0
CC(=O)Nc1nnc(CCS(=O)(=O)c2ccc(Cl)cc2)s1	i	1	-7	.	.	105	.
O=C(c1nc2nc(-c3ccc(Cl)cc3)cc(C(F)(F)F)n2n1)N1CCOCC1	i	1.1	-3	-33	103	98	-0.5
Cc1ccc(C(=O)OCC(=O)Nc2sccc2C(N)=O)cc1NC(=O)c1ccco1	i	0.93	-3	-5	157	99	-1.1
CC(/C=N/NC(=O)c1cccnc1)=C\c1ccco1	i	0.67	-4	21	60	102	-3.1
COc1ccc(N/N=C(\C#N)C(=N)N2CCCCC2)cc1	i	0.86	.	.	.	98	.
CC(CN1CCOCC1)OC(=O)C1COc2ccccc2O1 (stereo not given)	i	0.87	-2	.	.	66	.
COc1ccc(NC(=O)CN2CCN(CC(=O)Nc3ccc(OC)c(OC)c3)CC2)cc1	i	0.91	-12	38	69	95	-1.0
Additional results follow:
SMILES	HSV replic up	HSV replic up primary fold	PKD1 kinase inh	INS promoter inh	INS promoter inh cell count	RGS16-Gao HTS	GALR2 ag
CCOc1ccc(CN(C)CC(=O)NNC(=O)c2ccc(Cl)cc2)cc1OC	i	1.3	1	.	.	179	-1.1
Cc1cccc(C(=O)NCC(=O)OCC(=O)N2CCc3ccccc32)c1	i	0.92	3	.	.	101	.
CC[n+]1c(/C=C(\C)Nc2ccccc2)sc2ccccc21	i	0.94	-3	-8	128	110	-0.5
CCOc1ccc(C(=O)NC(=S)Nc2ccc(N3CCOCC3)c(Cl)c2)cc1[N+](=O)[O-]	i	0.85	-3	-44	83	112	-1.8
C=C(C)c1cccc(C(C)(C)NC(=O)N2CCN(CC)CC2)c1	i	0.77	5	i	85	109	-1.7
COc1ccc(CN2C(=O)Cc3c2nc(N)c2c(N)nc(N4CCCCC4)c(C#N)c32)cc1	?	.	-13	.	.	98	0.6
O=S(=O)(c1ccc(Br)cc1)N1CCN(c2ccc3nnc(-c4ccccc4)n3n2)CC1	i	0.61	0	.	.	104	-1.2
O=C(c1cc(C2CC2)nc2ccccc12)N1N=C(C(F)F)CC1(O)C(F)F (stereo not given)	i	0.87	4	38	119	100	-3.7
CC(C1CC1)N(Cc1ccccc1)C(=S)Nc1ccccc1Cl (stereo not given)	i	1	-1	.	.	94	.
COc1ccccc1C(=O)NCC(=O)N/N=C/c1cn[nH]c1-c1ccccc1	i	0.65	-3	.	.	101	.
COc1ccc(N=N/C(=C\O)C(=O)c2cccs2)cc1	.	.	-9	0	89	107	.
Cc1ccc(NC(=O)CSc2nnc(NC(=O)CN3CCOCC3)s2)cc1	i	0.88	3	.	.	84	-2.4
CCOC(=O)c1cc2cc3ccccc3cc2[nH]1	i	0.92	10	0	86	109	22*
COc1ccc(C(=O)N2CC3(C)CC2CC(C)(C)C3)cc1 (stereo not given)	i	0.91	3	-18	122	103	-1.8
CCOC(=O)CN1C(=O)Nc2ccc(Br)cc2C1c1ccccc1 (stereo not given)	i	0.95	-7	-50	219	93	-0.2
Nc1cc(=O)[nH]n1C1CCCCC1	i	0.79	-1	.	.	96	.
CCN(CC)S(=O)(=O)c1cc(OC)c(Cl)cc1Cl	i	1.1	-7	9	141	97	-0.6
CCCCOC(=O)Nc1ccc(C(=O)OCCC)cc1	i	0.84	-11	8	97	105	-2.3
Cc1ccnc(NC(c2ccncc2)c2c(C)[nH]c3ccccc23)c1 (stereo not given)	i	0.95	-5	.	.	102	-0.1
CCOC(=O)/C(C#N)=C\c1ccc(CC)s1	i	0.89	-2	-3	97	102	-1.3
COc1ccc(N2C(=O)C(CC(=O)Nc3ccccc3)N(Cc3ccc4c(c3)OCO4)C2=O)cc1 (stereo not given)	i	0.83	18	18	115	104	-0.4
CCOc1ccc(Br)cc1S(=O)(=O)Nc1cccc(S(=O)(=O)NC2=NCCC2)c1	i	0.85	1	.	.	99	.
O=C1CC(O)(C(F)(F)F)Oc2c1ccc1ccccc21 (stereo not given)	i	1	-14	-10	88	109	-2.7
Cn1c(NCc2ccccc2O)nc2ccccc21	i	1.1	-5	-2	110	60	-0.8
C#CC(CC)(CC)NC(=O)c1c(C)noc1C	i	0.72	7	4	93	113	-1.6

Reformatted: results already given
SMILES,HSV replic up,HSV replic up primary fold,PKD1 kinase inh,INS promoter inh,INS promoter inh cell count,RGS16-Gao HTS,GALR2 ag
Cc1ccc(NC(=O)CSc2nnc(NC(=O)CN3CCOCC3)s2)cc1,i,0.88,3,.,.,84,-2.4
CCOC(=O)c1cc2cc3ccccc3cc2[nH]1,i,0.92,10,0,86,109,22*
COc1ccc(C(=O)N2CC3(C)CC2CC(C)(C)C3)cc1 (stereo not given),i,0.91,3,-18,122,103,-1.8
CCOC(=O)CN1C(=O)Nc2ccc(Br)cc2C1c1ccccc1 (stereo not given),i,0.95,-7,-50,219,93,-0.2
Nc1cc(=O)[nH]n1C1CCCCC1,i,0.79,-1,.,.,96,.
CCN(CC)S(=O)(=O)c1cc(OC)c(Cl)cc1Cl,i,1.1,-7,9,141,97,-0.6
CCCCOC(=O)Nc1ccc(C(=O)OCCC)cc1,i,0.84,-11,8,97,105,-2.3

The results go on.
SMILES	HSV replic up	HSV replic up primary fold	PKD1 kinase inh	INS promoter inh	INS promoter inh cell count	RGS16-Gao HTS	GALR2 ag
O=C(CCCOc1ccccc1)n1nnc2ccccc21	i	0.94	-6	17	155	97	-0.8
CCOc1ncccc1C(=O)Nc1ccc(-c2cn3ccsc3n2)cc1	i	0.57	9	37	99	103	1.8
CCCCn1nnnc1SCC(=O)Nc1ccc(N(C)C)cc1	i	0.97	-3	-167	124	99	-1.2
CCN1CCN(C(=O)CS(=O)(=O)Cc2nc(-c3ccc(C)cc3)oc2C)CC1	i	0.96	-6	.	.	109	-1.7
CCOc1nc(-c2ccccc2)ccc1-c1noc(-c2ccco2)n1	i	0.95	1	33	122	98	-0.3
COc1cc(CCC(=O)OCn2nnc3ccccc3c2=O)cc(OC)c1OC	i	0.95	0	-71	76	99	-1.7
C=CCSc1n[nH]c(-c2ccc(OCCC)cc2)n1	i	0.94	-9	72	177	115	-0.4
COc1cc(C2C(Oc3ccccc3C)C(=O)N2Cc2ccc(F)cc2)cc(OC)c1OC (stereo not given)	i	1.1	-6	-27	89	115	-1.0
CCOc1ccccc1OCC(=O)NC1CCCCC1	i	1	-2	10	119	101	-2.0
COc1ccc(-n2cc(-c3ccccc3)c3c(N4CCN(CCO)CC4)ncnc32)cc1	i	0.68	-5	60	161	103	-2.7
C=CCOc1ccc(/C=N/NC(=O)CN(c2cc(Cl)ccc2OC)S(=O)(=O)c2ccc(C)c([N+](=O)[O-])c2)cc1	i	0.85	1	24	52	110	-1.0
CCNC(=O)Cn1c(=O)c2c(ncn2Cc2ccccc2)n(Cc2ccccc2)c1=O	i	1	0	-7	98	100	-2.3
